Bioassay records as filed in PubChem.
VACV Venus inh: qHTS for Stage-Specific Inhibitors of Vaccinia Orthopoxvirus: Venus Reporter Primary qHTS; 330,000 tested, 0.46% active; Vaccinia virus Venus reporter expression, fluorescence; AID 720580, 2013; Potency, µM (doses to about 36.5 µM), for the others: top-dose activity change, negative = inhibition, usual class: inhibitors; active means well fitted inhibition curve with a large enough effect; inconclusive means small, poorly fitted or top-dose-only effect; inactive means no such curve, though single readings can be large or run the other way; tested in A549 cells; further: nearly all actives have a fitted effect of over 30% in size; inactives centre near -10
Vaccinia mCherry: qHTS for Stage-Specific Inhibitors of Vaccinia Orthopoxvirus: mCherry Reporter Primary qHTS. Potency, µM (titrated, usually from 36.5 µM), for inactives: at the highest dose activity change, negative = inhibition, hits mostly inhibitors. Vaccinia virus mCherry reporter infection, fluorescence; about a quarter of the inactives have no number. 310,000 tested, 0.63% active; active = well fitted inhibition curve with a large enough effect; inconclusive = small, poorly fitted or top-dose-only effect; inactive = no such curve, though single readings can be large or run the other way; tested in A549 cells; further: nearly all actives have a fitted effect of over 35% in size; inactives centre near -10
* marks the source's active call; other numbers are inactive results; i = inactive; ? = inconclusive; · = no result given; & = joins results of further samples; [ ] = dose if it differs, or a comment. On the % scale 0 is the no-effect control and ±100 the full control effect; potency means the concentration at half of the fitted maximal effect.

canonical_smiles | Vaccinia mCherry | VACV Venus inh
COC(=O)CN1C(=O)[C@H]2[C@@H](/C=C/c3ccccc3)N3C(=O)CN(Cc4ccccc4)C(=O)[C@@]3(C)[C@H]2C1=O | -1% | 3%
Cc1cc(C(F)F)n2ncc(C(=O)NC3CCCCCC3)c2n1 | · | -21%
CCN(CC)CC(=O)Nc1ccc2c(c1)N(C(=O)CN(CC)CC)c1ccccc1CC2 | i | -10%
Cc1nn(-c2ccccc2)c(C)c1C(=O)NCCc1ccc(Cl)cc1 | i | -14%
Cc1ccc(N2CCN(C(=O)c3cn(C)c4ccc(S(=O)(=O)N5CCCC5)cc4c3=O)CC2C)cc1 (centres undefined) | -17% | -12%
COc1ccccc1NC(=O)C1=C(C)Nc2nc(SC)nn2C1c1ccccc1Cl (centres undefined) | i | -9%
c1ccc2c(c1)[nH]c1c(N3CCN(C4CCCCC4)CC3)ncnc12 | -20% | -26%
CN(C(=O)/C=C/c1ccc(F)cc1)C1CCCCC1 | -9%[7.34 µM] | -4%[7.34 µM]

Carrying on:
canonical_smiles | Vaccinia mCherry | VACV Venus inh
Cc1cccc(CCNC(=O)CNS(=O)(=O)c2ccc3nc(C)sc3c2)c1 | -30% | -23%
COc1cccc(CNC(=O)c2cccc(NC(=O)C3=C(C)OCCS3)c2)c1 | ? | -10%
CCOc1ccc(OCC(=O)Nc2ccccc2C(F)(F)F)cc1 | -18% | -16%
Cc1cc(-c2ccc(C)c(S(=O)(=O)NCc3cccs3)c2)on1 | -26% | -26%
COc1ccc(/C=N/NC(=O)C(Cc2c[nH]c3ccccc23)NC(=O)OCC(C)C)cc1[N+](=O)[O-] (centres undefined) | -14% | -14%
CCOc1ccc(CCNC(=O)c2nn(C)c3c2CS(=O)(=O)c2ccccc2-3)cc1OCC | -18% | -14%
CCOC(=O)N1CCN(C(=S)NC(=O)C23CC4CC(CC(C4)C2)C3)CC1 | i | 1%
COc1cccc(C2CC(c3ccc(C(C)C)cc3)n3nc(N)nc3N2)c1 (centres undefined) | -8% | -6%

Remaining list, next part
canonical_smiles | Vaccinia mCherry | VACV Venus inh
CNC(=O)c1[nH]cnc1C(=O)Nc1ccc(OC)cc1 | i | -13%
CCCC[C@@H](CNC)NC[C@H](Cc1ccc(O)cc1)NCCc1ccc(OCC)cc1 | ? | 13µM*
COc1ccc(NC(=O)c2cccc3ccccc23)cc1 | i | -19%
O=c1c(-c2ccc(O)cc2)coc2cc(O)cc(O)c12 | 11µM* | ?
NC(=O)CC1C(=O)N(c2ccccc2)C(=S)N1NC(=O)c1ccc(Br)cc1 (centres undefined) | i | -13%
Nc1nc(NCCO)nc(NCc2ccccc2)c1[N+](=O)[O-] | -8% | -14%
O=C(CNC(=O)C1CCCCC1)Nc1ccc(Cl)cc1 | i | -19%
COc1ccc(N2CCN(CCCNC(=O)Nc3ccccc3)CC2)cc1 | -14% | -1%

Other entries follow:
canonical_smiles | Vaccinia mCherry | VACV Venus inh
CC(=O)N1N=C(c2cccc(Cl)c2)OC1c1cccc([N+](=O)[O-])c1 (centres undefined) | i | -11%
NC(=O)c1cccc(-c2cnc3c(Nc4cccc(OC(F)(F)C(F)F)c4)nccn23)c1 | -3% | -23%
CCCCSc1nnc(-c2ccc(OC)cc2)n1C | -14% | -7%
COc1ccc2c(c[n+](C)c3c4cc5c(cc4ccc23)OCO5)c1OC | ? | ?
Cc1cc(/C=C(\C#N)C(=O)NCc2cccs2)c(C)n1-c1ccccc1F | -13% | ?
Cc1ccc(C2(C)NC(=O)N(CC(=O)Nc3nc(-c4ccccn4)cs3)C2=O)cc1 (centres undefined) | ? | ?
CC(=O)c1ccc(NC(=O)NC2CC(=O)N(c3ccc4c(c3)OCCO4)C2)cc1 (centres undefined) | -15% | -2%
CCOC(=O)N1CCN(c2ncnc3c2cnn3-c2ccc(OC)cc2)CC1 | · | -15%

The list goes on:
canonical_smiles | Vaccinia mCherry | VACV Venus inh
N#Cc1ccccc1Sc1ccccc1C(=O)OCC(N)=O | -8% | -6%
CC1CN(S(=O)(=O)c2cccc(C(=O)NCc3ccc4c(c3)OCO4)c2)CC(C)O1 (centres undefined) | -18% | -11%
CCC1CCc2[nH]nc(C(=O)O)c2C1 (centres undefined) | i | 5%
CCOC(=O)NC1(Nc2cccc(Cl)c2)Oc2ccccc2O1 | ? | ?
Cc1cccc(C)c1NC(=O)CNC(=O)c1c(C)nn(C)c1Cl | -6% | -5%
CC(C)c1cccc(-c2csc(C(C)(O)c3ccccc3)n2)c1 (centres undefined) | 9% | -7%
O=C(CNC(=O)c1ccncc1)Nc1ccc(F)c(F)c1 | i | -14%
CCCCN(CC)CCNC(=O)CN1C(=O)COc2ccc(S(=O)(=O)N3CCCC3)cc21 | 2% | 11%&-11%

Next records follow.
canonical_smiles | Vaccinia mCherry | VACV Venus inh
CN(O)/C=C/C(=O)c1ccc(Br)cc1 | -10% | -7%
O=S1(=O)N=C(N2CCN(Cc3ccccc3)CC2)c2ccccc21 | -15% | -19%
Cc1cc(C)c2nc(-c3ccccc3)ccc2c1 | 0% | -4%
CCCCN1CC(COCc2ccccc2)Oc2cccc(NCc3ccc(OC)cc3)c2S1(=O)=O (centres undefined) | i | -10%
COc1cccc(/C=C/C(=O)OCC(=O)c2ccc(Br)cc2)c1 | -17% | -4%
COc1cc(OC)cc(C(=O)NNC(=S)NCc2ccco2)c1 | -8% | -8%
OC(c1nc2ccc(F)cc2[nH]1)C(O)c1nc2ccc(F)cc2[nH]1 (centres undefined) | -17% | ?
OC[C@H]1NC[C@@H](O)[C@@H]1O | -12% | -7%

Filtered by structure, the entries above containing a Cl atom (six)
canonical_smiles | Vaccinia mCherry | VACV Venus inh
Cc1nn(-c2ccccc2)c(C)c1C(=O)NCCc1ccc(Cl)cc1 | i | -14%
COc1ccccc1NC(=O)C1=C(C)Nc2nc(SC)nn2C1c1ccccc1Cl (centres undefined) | i | -9%
O=C(CNC(=O)C1CCCCC1)Nc1ccc(Cl)cc1 | i | -19%
CC(=O)N1N=C(c2cccc(Cl)c2)OC1c1cccc([N+](=O)[O-])c1 (centres undefined) | i | -11%
CCOC(=O)NC1(Nc2cccc(Cl)c2)Oc2ccccc2O1 | ? | ?
Cc1cccc(C)c1NC(=O)CNC(=O)c1c(C)nn(C)c1Cl | -6% | -5%

(more compounds)
canonical_smiles | Vaccinia mCherry | VACV Venus inh
CC1=CC(=O)C(C(C)=Nc2ccccc2[N+](=O)[O-])C(=O)O1 (centres undefined) | -17% | -12%
CCC/C(=C1/c2ccccc2C(=O)N1c1ccccc1)c1ccc2c(c1)OCCO2 | i | -23%
COc1ccc(Nc2nc(N)nc(CN3CCC(Cc4ccccc4)CC3)n2)cc1 | 7% | -11%
CN(C)S(=O)(=O)c1cccc(NC(=O)COc2cccc(C#N)c2)c1 | -17% | -7%
COc1cc(NC(=O)Cn2cnc(S(=O)(=O)N3CCC(C)CC3)c2)cc(OC)c1OC | i | -6%
CN1CCN(c2ccc(S(=O)(=O)N3CCCCC3)cc2NC(=O)COc2cccc(Cl)c2)CC1 | -18% | ?
CC1CCCC(C)N1C(=O)COC(=O)CSc1ccc(C(N)=O)cc1[N+](=O)[O-] (centres undefined) | i | -15%
CCc1nn(C(C)C(=O)NCCN2CCN(c3cccc(C)c3C)CC2)c(=O)c2cc3occc3n12 (centres undefined) | · | -22%

New compounds follow:
canonical_smiles | Vaccinia mCherry | VACV Venus inh
CCOc1ccc2nc(N3CCC(C(=O)Nc4cc(C)ccc4C)CC3)sc2c1 | -7% | -7%
COc1cc2cc(CN(CCCO)S(=O)(=O)c3ccccc3)c(=O)[nH]c2cc1OC | i | -23%
COc1ccccc1/C=C/C(=O)NCC(=O)N/N=C/c1ccccc1[N+](=O)[O-] | -20% | -10%
Cc1nnc2sc(SCC(=O)N3CCCCC3)nn2c1=O | i | -19%
NC1=NN=C(N2N=C(c3ccc(Br)cc3)CC2(O)C(F)(F)F)n2ncnc2C1 (centres undefined) | -26% | -17%
COc1ccc(NS(=O)(=O)c2ccc(NC(=O)Cc3cccs3)cc2)cc1 | ? | -30%
O=C(Nc1ccncc1)C1COc2ccccc2O1 (centres undefined) | i | -6%
CCn1c(=O)cc(OCC(=O)NCCc2ccc(OC)c(OC)c2)c2ccccc21 | i | 10%

(list continues)
canonical_smiles | Vaccinia mCherry | VACV Venus inh
Cc1ccc(CCC(=O)Nc2ccc(S(N)(=O)=O)cc2)o1 | · | 3%
Cc1ccc(C)c(NC2=C(c3ccc(C(F)(F)F)cc3)C(=O)c3ccccc32)c1 | -14% | -10%
CCOc1ccc(-n2ccnc(SCC(=O)Nc3ccc(CC)cc3)c2=O)cc1 | -17% | -8%
CCCNC(=O)COC(=O)c1n[nH]c2ccccc12 | -8% | 2%
Cc1nn(C(=O)N(C)C)c(C)c1CN1C(=O)c2ccccc2C1=O | -18% | -20%
COc1ccc(-c2cc(C(F)(F)F)nc(N3CCN(Cc4ccccc4)CC3)n2)cc1OC | -11% | -10%
Cc1cccc(OCc2nnc(SCc3cc(=O)[nH]c4ccccc34)n2-c2ccccc2)c1 | -14% | -22%
COc1cc2c(NC3CCN(C)CC3)nc(N3CCCN(C)CC3)nc2cc1OCCCCCC(N)=O | i | -15%

Next compounds follow:
canonical_smiles | Vaccinia mCherry | VACV Venus inh
CC(C)NC(=O)CSc1nc(Cc2cccs2)nc2ccccc12 | -13% | -6%
Cc1ccc([N+](=O)[O-])cc1NC(=O)c1ccc(CSc2ccccc2)cc1 | -6% | -9%
CCn1c2ccccc2c2cc(NC(=O)CSc3nnc(C4CC4)n3Cc3ccco3)ccc21 | ? | ?
COc1cc(C(CC(=O)Nc2ncccc2C)N2Cc3ccccc3C2=O)cc(OC)c1OC (centres undefined) | -8% | -3%
COc1ccc(OC)c(S(=O)(=O)NC(=O)C2(C)CCN2C(=O)CC2CCCC2)c1 (centres undefined) | 30%[activator] | -11%
Cc1nc2c(OCC(=O)C(C)(C)C)cccn2c1N(C)Cc1cccs1 | i | 2%
COc1ccc(C(=O)c2c(N)c(C(=O)Nc3cccc(OC)c3)c3ccccn23)cc1 | -5% | -1%
Nc1nonc1C(=O)NC(c1ccccc1)c1ccccc1 | i | -7%

(listing goes on)
canonical_smiles | Vaccinia mCherry | VACV Venus inh
COc1ccc(-c2nnc3ccc(SCC(=O)N4CCOCC4)nn23)cc1 | -11% | -11%
COc1cccc(C2NC(=O)CCC2[N+](=O)[O-])c1OC (centres undefined) | ? | -1%
Cc1ccc(C=Nc2cccnc2N)cc1 | -13% | -16%
O=S(=O)(c1ccc(F)cc1)N1CCCC(CO)C1 (centres undefined) | -13% | -6%
CC1(C(=O)NS(=O)(=O)c2ccc(Cl)cc2)CCN1C(=O)Cc1ccccc1Cl (centres undefined) | i | 2%
COc1nc(C)c2cc(C)oc2n1 | i | 8%
CCOc1ccc(S(=O)(=O)N2CCC(C(=O)N3CCOCC3)CC2)cc1C | -22% | -21%
Cc1ccc(-c2nc(Nc3ccc(N4CCOCC4)cc3)c3ccccc3n2)cc1 | ? | -29%

Later entries
canonical_smiles | Vaccinia mCherry | VACV Venus inh
CCn1nc(C(=O)OCC(=O)c2ccc3c(c2)OCCO3)c2ccccc2c1=O | -23% | -11%
CN(C[C@H](Cc1ccccc1)N(C[C@@H](CC1CCCCC1)N(CCc1ccccc1)N=O)N=O)N=O | -16% | -19%
Cc1cc2c(sc3ccccc32)c(C)n1 | i | -6%
CCn1c(SCC(=O)Nc2ccc(NC(C)=O)cc2)nc2c1c(=O)n(C)c(=O)n2C | i | -15%
COc1ccc(CNC(=O)c2cccc(NC(=O)c3ccccc3)c2)cc1 | -4% | -15%
COc1ccc(S(=O)(=O)Cc2ccc(C(=O)N3CCN(c4ccc(Cl)cc4)CC3)o2)cc1 | i | -7%
Cc1ccc(C)c(C(=O)CN2C(=O)CCC2=O)c1 | · | -13%
Cc1ncoc1C(=O)Nc1ncc([N+](=O)[O-])s1 | 9% | -1%

(cont.)
canonical_smiles | Vaccinia mCherry | VACV Venus inh
Cc1oc2c(cc(NS(=O)(=O)c3ccc(Cl)cc3)c3ccccc32)c1C(=O)O | ? | 5%
Cc1cc2c(c(=O)n1Cc1ccccn1)C(C(C)C)C(C#N)=C(N)O2 (centres undefined) | -14% | -13%
O=[N+]([O-])c1ccc(O)c(C=Nc2ccc3c(c2)OCO3)c1 | ? | -4%
CC(C)NC(=O)Cn1c(=O)nc(-c2ccccc2F)c2cc(Cl)ccc21 | i | -13%
COc1ccccc1NC(=O)NC1CCCCCCC1 | -13% | -21%
CN(CCOc1ccc(-c2ccn(S(=O)(=O)c3c(Cl)cccc3Cl)n2)cc1)c1ccccn1 | -16% | -13%
COc1ccc(C2CC(=O)Nc3c2c(C)nn3-c2nc(C)cc(C)n2)c(OC)c1OC (centres undefined) | -5% | -12%
Cc1ccc(C(=O)N/C(=C\c2ccco2)C(=O)NCc2cccnc2)cc1 | i | -7%

New compounds follow
canonical_smiles | Vaccinia mCherry | VACV Venus inh
Clc1ccc(-n2nnnc2-c2ccno2)cc1 | -9% | -1%
Cc1ccc(CNC(=O)c2ccc(NC(=O)CCS(=O)(=O)c3cccs3)cc2)cc1 | -19% | -24%
CC(C)CNc1oc(-c2ccc(F)cc2)nc1C#N | -4% | 5%
Cc1ccc(OCC(=O)NCC2(N3CCOCC3)CCCCC2)cc1C | 1% | -9%
COc1ccc(NC2=NCC(=O)N2c2ccccc2F)c(OC)c1 | i | -5%
Cc1ccc(-n2ccnc(NCCc3ccccc3)c2=O)cc1C | 3% | 2%

Not a hit list; any-hit rate near 0.82%.
